BLM helicase inh: blocks DNA unwinding by human BLM helicase; recombinant BLM DNA unwinding, fluorescence dequenching; P54132; Potency, µM (titrated, usually from 56.1 µM), inactives show top-dose activity change, negative = inhibition, actives largely listed as inhibitors; hit rate 0.2% among 350,000; AID 2528;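 further: plate controls were vehicle for no effect and no enzyme for full effect; nearly all actives have a fitted effect of over 35% in size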
GLS inhibitor: blocks human kidney-isoform glutaminase activity; O94925; Potency, µM (top dose mostly 45.5 µM), for the others: at the highest dose activity change, negative = inhibition, usual class: inhibitors; hit rate 0.21% among 410,000; GLS enzymatic activity, qHTS titration; further: on the % scale 0 is the no-effect control and ±100 the full control effect
Target sequence (O94925 whole entry, looked up, canonical isoform): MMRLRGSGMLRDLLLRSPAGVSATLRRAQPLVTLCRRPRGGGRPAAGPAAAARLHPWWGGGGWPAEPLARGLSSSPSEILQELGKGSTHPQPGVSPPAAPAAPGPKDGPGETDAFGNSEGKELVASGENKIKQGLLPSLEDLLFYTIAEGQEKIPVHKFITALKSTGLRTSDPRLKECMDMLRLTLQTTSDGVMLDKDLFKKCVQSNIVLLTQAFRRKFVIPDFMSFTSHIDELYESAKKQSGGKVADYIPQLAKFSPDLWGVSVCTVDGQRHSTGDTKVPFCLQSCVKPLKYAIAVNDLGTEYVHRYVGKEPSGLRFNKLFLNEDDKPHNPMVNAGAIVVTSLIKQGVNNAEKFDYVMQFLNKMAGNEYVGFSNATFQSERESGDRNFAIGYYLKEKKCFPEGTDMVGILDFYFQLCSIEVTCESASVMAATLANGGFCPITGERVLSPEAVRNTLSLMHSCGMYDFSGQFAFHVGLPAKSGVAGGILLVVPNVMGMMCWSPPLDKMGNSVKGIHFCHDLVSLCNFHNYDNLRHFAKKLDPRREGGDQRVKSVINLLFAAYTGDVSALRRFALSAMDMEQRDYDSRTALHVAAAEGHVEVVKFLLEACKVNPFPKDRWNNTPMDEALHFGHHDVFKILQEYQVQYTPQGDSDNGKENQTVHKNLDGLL
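Compounds were pin-transferred onto hKGA, after which L-glutamine (1 mM solution) and a detection mix of glutamate oxidase, HRP and Amplex Red were added. Initial and 30 min RT fluorescence reads were collected.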
Pin1 inhibitor: human Pin1 inhibition. AID 504891. hit rate 0.009% among 390,000. Q13526. Potency, µM (highest dose often 115 µM), without a hit: at the highest dose activity, negative = inhibition, hits mostly inhibitors. Pin1 FP peptide displacement, HiFluor488, 10 min; active means well fitted inhibition curve with a large enough effect in the polarisation, with a control signal flat, not every such curve was filed as active; inconclusive means small, poorly fitted or top-dose-only effect, or effect the other way, or a change in a side signal; inactive means no such curve, though single readings can be large or run the other way; the % refers to the polarisation; further: on the % scale 0 is the no-effect control and ±100 the full control effect
HP1b binding inh: blocks HP1-beta chromodomain binding to methylated histone tails | Potency, µM (series often up to 114 µM), inactives show top-dose activity change, negative = inhibition, usual class: inhibitors | AlphaScreen HP1-beta / biotin-H3K9me3 peptide binding | P83916 | hit rate 0.56% among 390,000 | AID 540317; further: nearly all actives have a fitted effect of over 70% in size; inactives centre near 23
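AlphaScreen: HP1-beta (50 nM) preformed 30 min with biotin-H3(1-18)K9me3 peptide (50 nM) in PBS pH 7.4, 0.01% Tween-20. Compound added for 30 min at RT, then streptavidin donor/nickel chelate acceptor beads (10 ug/mL) for 30 min.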
JMJD2A Tudor: inhibitors of human JMJD2A Tudor domain; O75164; AlphaScreen JMJD2A-Tudor / H3K4me3 peptide binding; Potency, µM (titrated, usually from 114 µM), for the others: top-dose activity change, negative = inhibition, most hits filed as inhibitors; hit rate 4.4% among 390,000; further: on the % scale 0 is the no-effect control and ±100 the full control effect; nearly all actives have a fitted effect of over 50% in size
G9a inh: inhibitors of human histone lysine methyltransferase G9a; G9a H3K9 monomethylation, AlphaScreen, 2 h; Potency, µM (top dose mostly 102 µM), without a hit: top-dose activity, negative = inhibition, hits mostly inhibitors; hit rate 8.8% among 350,000; AID 504332; further: on the % scale 0 is the no-effect control and ±100 the full control effect; nearly all actives have a fitted effect of over 75% in size
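Enzyme 20 nM + cpd, 15 min RT; add b-H3K9 pep 500 nM / SAM 20 uM; 2 h RT; anti-H3K9me1 Ab 0.5 ug/mL + SA donor / anti-rabbit acceptor beads 20 ug/mL each, 10 min; AlphaScreen read.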
Tb PGK inh: blocks T. brucei phosphoglycerate kinase; AID 602233; Potency, µM (doses to about 57.5 µM), for the others: at the top dose activity change, negative = inhibition, most hits filed as inhibitors; hit rate 0.043% among 380,000; P07378; PGK/GAPDH coupled, Kinase-Glo luminescence, 60 min; further: on the % scale 0 is the no-effect control and ±100 the full control effect; nearly all actives have a fitted effect of over 60% in size
Target sequence (P07378 whole entry, looked up): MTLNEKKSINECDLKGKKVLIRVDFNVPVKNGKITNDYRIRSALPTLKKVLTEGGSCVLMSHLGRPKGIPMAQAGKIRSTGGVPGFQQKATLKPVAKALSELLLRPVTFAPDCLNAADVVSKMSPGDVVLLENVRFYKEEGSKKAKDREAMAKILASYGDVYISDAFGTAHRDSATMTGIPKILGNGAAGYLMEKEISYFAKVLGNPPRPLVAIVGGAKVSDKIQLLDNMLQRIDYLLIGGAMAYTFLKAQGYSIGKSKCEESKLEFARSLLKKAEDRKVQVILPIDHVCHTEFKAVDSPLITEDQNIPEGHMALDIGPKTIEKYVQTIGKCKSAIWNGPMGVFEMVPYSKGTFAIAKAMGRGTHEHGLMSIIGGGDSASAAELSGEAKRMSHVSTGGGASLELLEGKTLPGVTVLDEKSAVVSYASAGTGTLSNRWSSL
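Luminescent ATP detection (Kinase-Glo Plus) follows a 60-minute room-temperature incubation, with wells lacking PGK as controls. Buffer: 100 mM TEA (pH 7.6), 5 mM MgCl2, 0.01% Tween-20. Coupling enzyme GAPDH (100 nM final) supplies unstable 1,3-BPG in-well.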
Pol iota inh: inhibitors of human DNA polymerase iota. Q9UNA4. Pol iota fluorescent replication assay, 10 min. Potency, µM (highest dose often 115 µM), for the others: at the highest dose activity, negative = inhibition, hits mostly inhibitors. hit rate 1% among 390,000. AID 588590
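Pol iota at 10 nM preincubated 15 min with compounds at room temperature; reaction started with fluorescent substrate, 50 nM final. Fluorescence read kinetically at 0 and 10 min; buffer-only wells as negative control.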
Active calls of the source: *; i = inactive; ? = inconclusive; . = not tested or not shown; & = joins results of further samples; [ ] = dose if it differs, or a comment. Unless noted, the call rests on the fitted dose curve; in most records, active means well fitted curve in the direction sought with a large enough effect; inconclusive means small, poorly fitted or top-dose-only effect, or another doubt; inactive means no such curve, though single readings can be large; an effect the other way counts as inactive or inconclusive. Potency means the concentration at half of the fitted maximal effect.

Values run as follows: BLM helicase inh	GLS inhibitor	Pin1 inhibitor	HP1b binding inh	JMJD2A Tudor	G9a inh	Tb PGK inh	Pol iota inh
Cn1[nH]c(-c2ccccc2)c(/C=N/O)c1=O
  -7%	-20%	-3%	4%	?	?	-10%	57%[activator]
O=C(CC1C(=O)OCC2CCCCN21)Nc1ccccc1C(F)(F)F (configuration not stated)
  -5%	2%	-3%	?	?	45µM*	-6%	76%[activator]
Cc1cccc(Cn2c(=O)n(Cc3ccco3)c(=O)c3ccccc32)c1
  -5%	5%	13%	19%	1%	-18%[59 µM]	i	-3%
CCOC(=O)N1CCN(CC(=O)Nc2sc(CC)cc2C(=O)c2ccc(OC)cc2)CC1
  -9%	1%	13%	-23%	?	28µM*	12%	-26%[58.9 µM]
Cc1ccc(S(=O)(=O)N(CC(=O)NCCC2=CCCCC2)Cc2ccccc2F)cc1
  -11%	-5%	1%	80%[activator]	20%	14%[2.33 µM]	-5%	-11%
Cc1sc2nc(CN3CCCCC3)nc(N3CCN(C(=O)c4ccco4)CC3)c2c1C
  1%	-7%	-7%	36%	-11%	-4%	-4%	-7%
CCn1c2ccccc2c2cc(NC(=S)N3CCOCC3)ccc21
  -4%	24%	0%	-21%	?	7%[12.7 µM]	-5%	19%
COC(=O)c1ccc(CSc2nnc3sc4ccccc4n23)o1
  4%	1%	-10%	25%	-12%	50µM*	-7%	-2%
Cc1cc(-c2nn(-c3ccccc3F)cc2CN2CCCC(CO)C2)c(C)s1 (configuration not stated)
  -3%	0%	-1%	2%	-13%	.	-3%	-12%
CC(C)CC(c1nnnn1Cc1ccccc1)N1CCN(C(=O)c2ccco2)CC1 (configuration not stated)
  -2%	0%	-8%	19%	?	-48%[12.7 µM]	i	-13%
Cc1cccc(NC(=O)C(=O)NCC(c2cccnc2)N2CCc3ccccc3C2)c1C (configuration not stated)
  -4%	4%	0%	?	?	?	-3%	-8%
COc1ccc2oc(=O)cc(CN3CCN(c4ccc(F)cc4)CC3)c2c1
  -7%	6%	16%	8%	-29%	-28%[59 µM]	7%	?
Cc1cnc(NC(=O)CSc2nnc(-c3cccs3)n2C)s1
  2%	1%	-1%	10%	-23%	5%	-3%	9%
O=S(=O)(Nc1cccc(C(F)(F)F)c1)c1ccc(NS(=O)(=O)c2ccc3c(c2)OCCO3)cc1
  -11%	4%	4%	24%	-23%	-31%[59 µM]	-2%	7%
COc1ccc(-c2cc(OC(=O)c3ccccc3C)c3c(C)oc(C)c3c(=O)c2)cc1
  -4%	8%	3%	-19%	?	14µM*	3%	?
COc1ccc(-c2c(C(C)=O)c(C)n(C)c2C)cc1
  0%	19%	7%	-12%	-23%	?	-4%	8%
Cc1ccc(Nc2c(-c3ccc(N4CCOCC4)cc3)nc3ncccn23)c(C)c1
  -5%&-3%	10%&12%	32%&15%[activator]	-30%&-6%	?	79µM*	-2%&2%	0%&-20%
Cc1cc(N/N=C/c2ccc3c(c2)OCO3)nc2ccccc12
  -12%	7%	-5%	14%	?	?	-7%	13%
CNS(=O)(=O)c1cc(-c2nn3c(C)nnc3c3ccccc23)ccc1C
  -5%	3%	0%	13%	-23%	11%[59 µM]	-1%	-10%
CCN(CC)CCN(C(=O)c1ccc2c(c1)CCCC2)c1nc2cc(OC)c(OC)cc2s1
  3%	3%	-2%	-10%	?	50µM*	1%	30%
CCC(=O)N1c2nc(-c3ccco3)nn2C2(CCCCC2)[C@@H]2CCCC[C@@H]21
  -3%	-9%	-6%	34%	-21%	-43%[59 µM]	-10%	12%
O=C(CCCn1ncn2c(cc3occc32)c1=O)NCc1ccccc1F
  0%&5%	-4%&7%	-3%&0%	38%&14%	2%&-6%	-6%&7%[59 µM]	9%&-9%	29%&25%
CN(C)c1cccc(C(=O)NCCCSc2ccccc2)c1
  -2%	25%	5%	?	?	40µM*	8%	4%
CC1CCc2c(sc(NC(=O)CCCOc3ccccc3)c2C(N)=O)C1 (configuration not stated)
  -5%	5%	?	14%	1%	-34%[59 µM]	2%	55%
Nc1ccccc1Sc1ccc(C(F)(F)F)cc1[N+](=O)[O-]
  -16%	-13%	7%	?	?	40µM*	0%	54%[activator]
CSc1ccc(CN(C)Cc2nc3ccccc3c(=O)[nH]2)cc1
  1%	0%	4%	25%	-22%	5%[59 µM]	1%	?
O=C(c1cnc2ccc3ccccc3c2c1)c1cc(F)ccc1O
  -3%	-6%	-1%	32%	-15%[11.4 µM]	?	i	14%
Cn1c(=O)n(C)c2cc([N+](=O)[O-])c(N3CCN(C(=O)c4ccc(F)cc4)CC3)cc21
  -8%	-7%	-2%	8%	-25%	14%[12.7 µM]	-5%	-19%
CCOc1cc(/C=C/c2ccc3cccc([N+](=O)[O-])c3n2)cc(Cl)c1O
  6%	26%	-2%	0%	?	-12%[59 µM]	i	-4%
COc1cc(CNc2ccc(NC(C)=O)cc2)ccc1OCc1ccccc1C
  -11%	-6%	-1%	5%	-29%	40µM*	-9%	13%

Going on with the list.
Values run as follows: BLM helicase inh	GLS inhibitor	Pin1 inhibitor	HP1b binding inh	JMJD2A Tudor	G9a inh	Tb PGK inh	Pol iota inh
Cc1cc(C)c(NC(=O)CSc2nccn2-c2cccc(Cl)c2)c(C)c1
  -1%	6%	1%	-9%[57 µM]	?	?	-7%	-8%
CSc1nc(Oc2ccc(Cl)cc2)c2sccc2n1
  0%	4%	-1%	103%[activator]	22%	6%[59 µM]	-6%	-6%
C=CCN1C(=O)c2ccc(C(=O)N3CCN(S(=O)(=O)c4cccc(F)c4)CC3)cc2C1=O
  .	7%	-18%	11%	-15%	?	8%	9%
COc1cc2c(cc1OC)CN(c1ncccc1[N+](=O)[O-])CC2
  -2%	-2%	-1%	?	?	50µM*	-6%	60%[activator]
O=[N+]([O-])c1cncc([N+](=O)[O-])c1Nc1ccccc1Cl
  -6%	-4%	-10%	-9%	?	?	i	27%
CCOc1cc(/C=C2\CCn3c2nc2cc(Cl)ccc2c3=O)ccc1O
  -5%	0%	?	15%	-8%	?	-3%	47%[activator]
O=C(CN1CCN(Cc2ccc(Cl)cc2)CC1)N/N=C/C=C/c1ccccc1[N+](=O)[O-]
  -3%	-4%	0%	2%	-16%[57.1 µM]	?	-8%	1%
Cc1ccc(N=c2c([N+](=O)[O-])nn(-c3ccc(Cl)cc3)n2O)cc1C
  -1%	9%	-9%	?	?	10µM*	-5%	57%[activator]
COc1ccc(-n2ccnc2SCC(=O)Nc2ccc3c(c2)OCO3)cc1
  -5%	-4%	2%	2%[57 µM]	-33%	?	-3%	13%
CCCc1cc2c(=O)c(-c3ccccn3)c(C)oc2cc1O
  2%	-6%	6%	23%	-6%	-1%	-6%	-5%
COc1ccc(CCNC(=O)c2sc3nc4n(c(=O)c3c2C)CCCC4)cc1OC
  -1%	7%	5%	80%[activator]	-22%	13µM*	0%	20%
CC1=Nc2cc(C(=O)NCc3ccccc3Cl)ccc2Sc2c(C)ccc(C)c21
  -11%	-3%	39%[activator]	25%	-27%	-30%[59 µM]	5%	19%
COc1cccc(C2=NNC(=NCc3ccccc3)SC2)c1
  -7%	-8%	12%	7%	-35%	45µM*	i	5%
Cc1ccccc1CN1C(=O)C(C)S/C1=N/N=C/c1ccco1 (configuration not stated)
  ?	2%	2%	-8%	-9%	.	-8%	11%
O=C(NCCN1CCOCC1)c1ccc2c(c1)N(Cc1ccc(Cl)cc1)CCS2
  -4%	21%	0%	1%	-34%	.	-4%	-2%
Nc1cccc2c1C(=O)N(C(=O)/C=C/c1cccc(Br)c1)C2=O
  -10%	-64%	?	-14%	-19%	.	-1%	11µM*
Clc1cccc(-n2ncc3c(Nc4ccc5c(c4)OCCO5)ncnc32)c1
  -5%	6%	-3%	32%	-18%	6%[59 µM]	-5%	8%
CC(C)CCn1c(Oc2ccccc2Cl)nc2c1c(=O)n(C)c(=O)n2C
  1%	5%	1%	4%	-29%	-18%[0.501 µM]	1%	7%
CCn1cc(CNC(=O)c2cc(-c3ccc(C)cc3)nc3ccc(Br)cc23)c(C)n1
  -19%	12%	4%	17%	-20%	-7%[59 µM]	10%	?
O=C(/C=C/c1ccco1)NC(=S)Nc1ccccc1
  -6%	-2%	-4%	-25%	-57%	-1%[0.501 µM]	-3%	?
CC1Cc2ccccc2N1C(=O)CNc1ccccc1N1CCCCC1 (configuration not stated)
  -8%	-5%	0%	-22%	?	?	-7%	138%[activator]
COc1cccc(/C=C2\SC(=O)N(CC(=O)NCCCn3ccnc3)C2=O)c1
  3%	2%	-13%	19%	-32%	.	-4%	-15%
C/C(=N\Nc1cccc2cccnc12)c1ccc(C)cc1
  -7%	8%	16%	1%	-35%	7.1µM*	-6%	3%
O=C(NC12CC3CC(CC(C3)C1)C2)c1ccc(-c2ccc(Br)cc2)o1
  -3%	5%	18%	-19%	-16%	11µM*	-4%	19%

Given in markdown: eight of the compounds above
| Structure | BLM helicase inh | GLS inhibitor | Pin1 inhibitor | HP1b binding inh | JMJD2A Tudor | G9a inh | Tb PGK inh | Pol iota inh |
| --- | --- | --- | --- | --- | --- | --- | --- | --- |
| Clc1cccc(-n2ncc3c(Nc4ccc5c(c4)OCCO5)ncnc32)c1 | -5% | 6% | -3% | 32% | -18% | 6%[59 µM] | -5% | 8% |
| CC(C)CCn1c(Oc2ccccc2Cl)nc2c1c(=O)n(C)c(=O)n2C | 1% | 5% | 1% | 4% | -29% | -18%[0.501 µM] | 1% | 7% |
| CCn1cc(CNC(=O)c2cc(-c3ccc(C)cc3)nc3ccc(Br)cc23)c(C)n1 | -19% | 12% | 4% | 17% | -20% | -7%[59 µM] | 10% | ? |
| O=C(/C=C/c1ccco1)NC(=S)Nc1ccccc1 | -6% | -2% | -4% | -25% | -57% | -1%[0.501 µM] | -3% | ? |
| CC1Cc2ccccc2N1C(=O)CNc1ccccc1N1CCCCC1 (configuration not stated) | -8% | -5% | 0% | -22% | ? | ? | -7% | 138%[activator] |
| COc1cccc(/C=C2\SC(=O)N(CC(=O)NCCCn3ccnc3)C2=O)c1 | 3% | 2% | -13% | 19% | -32% | . | -4% | -15% |
| C/C(=N\Nc1cccc2cccnc12)c1ccc(C)cc1 | -7% | 8% | 16% | 1% | -35% | 7.1µM* | -6% | 3% |
| O=C(NC12CC3CC(CC(C3)C1)C2)c1ccc(-c2ccc(Br)cc2)o1 | -3% | 5% | 18% | -19% | -16% | 11µM* | -4% | 19% |

High-throughput results from PubChem.

The list is partial; count on the stated rates, not on these rows.
